High-throughput results deposited in PubChem BioAssay by Broad Institute.
MLL AF4-AF9 inh: inhibitors of human MLL-AF4/AF9 interaction; hit rate 0.47% among 350,000; AlphaScreen, biotin-AF4 peptide binding to FLAG-AF9; inhibition, % at 10 µM;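 active means every replicate reaching a set inhibition limit, whatever the replicate mean, cut at about 25% in these data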;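 further: 0% = plate neutral control median and 100% = total signal loss; the record names both 10 and 1 µM as test concentration; the first replicate is given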
Target sequence (P42568 whole entry, looked up): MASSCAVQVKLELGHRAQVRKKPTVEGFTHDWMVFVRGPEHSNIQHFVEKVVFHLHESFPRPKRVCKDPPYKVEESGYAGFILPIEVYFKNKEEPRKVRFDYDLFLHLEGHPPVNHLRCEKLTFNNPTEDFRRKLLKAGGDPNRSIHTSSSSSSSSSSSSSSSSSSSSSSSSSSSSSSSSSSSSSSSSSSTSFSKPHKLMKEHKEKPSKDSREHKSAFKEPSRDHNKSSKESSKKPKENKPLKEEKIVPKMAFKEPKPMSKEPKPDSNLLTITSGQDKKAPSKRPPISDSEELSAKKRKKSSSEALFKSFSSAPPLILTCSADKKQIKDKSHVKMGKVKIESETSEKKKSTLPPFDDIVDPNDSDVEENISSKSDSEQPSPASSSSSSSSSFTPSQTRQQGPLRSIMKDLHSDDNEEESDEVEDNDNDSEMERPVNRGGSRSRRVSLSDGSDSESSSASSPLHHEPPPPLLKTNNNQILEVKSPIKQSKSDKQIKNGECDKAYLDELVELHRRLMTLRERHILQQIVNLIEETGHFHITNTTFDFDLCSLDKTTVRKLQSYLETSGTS
* marks the source's active call; other numbers are inactive results; & = joins results of further samples. This is a subset; rates above refer to the full screens.

SMILES | MLL AF4-AF9 inh
COc1ccc(Cl)cc1-c1cc(C(=O)NC2CCCCC2)[nH]n1 | 4.0
C[C@@H](NC(=O)C[C@H]1C[C@@H]2c3cc(NC(=O)c4ccc5c(c4)OCO5)ccc3O[C@@H]2[C@H](CO)O1)c1ccccc1 | -1.4
CCOC(=O)[C@]12CCC=C1N(Cc1ccccc1)C(=O)[C@H](CC(=O)NCc1cccc(C(F)(F)F)c1)C2 | -3.6
CCCNC(=O)N1[C@H](C#N)[C@H](c2ccc(-c3cccnc3)cc2)[C@@H]1CO | -2.4
CO[C@H]1CN(C)C(=O)c2cc(NC(=O)c3ccno3)ccc2OC[C@@H](C)N(S(C)(=O)=O)C[C@H]1C | -3.0
CCC(=O)N1C[C@@H](C)[C@H](OC)CN(C)C(=O)c2ccc(NC(=O)Nc3ccc(Cl)cc3)cc2OC[C@@H]1C | 2.7
CC(C)NC(=O)N(C)C[C@@H]1Oc2ccc(NC(=O)Cc3ccccc3)cc2CC(=O)N([C@@H](C)CO)C[C@H]1C | -2.6
C[C@H](CO)N1C[C@H](C)[C@H](CN(C)CC2CCCCC2)OCc2cn(nn2)CCCC1=O | -1.7
CCCC(=O)Nc1ccc2c(c1)C(=O)N(C)C[C@@H](OC)[C@H](C)CN(C(=O)c1cnccn1)[C@H](C)CO2 | 2.2
COc1cc(C(O)c2nc(-c3ccccc3C)cs2)ccc1F (stereo not given) | -3.3
COc1ccc2c3c(n(C)c2c1)[C@@H](CO)N(C(=O)Nc1ccc(F)cc1)CC31CCN(Cc2ccccc2F)CC1 | 5.9
O=C(C[C@@H]1C=C[C@H](NC(=O)CC2CC2)[C@H](CO)O1)NCc1ccccc1 | -4.0
Cc1noc(C)c1S(=O)(=O)N(C)C[C@@H]1OCCCC[C@H](C)Oc2ccc(NC(=O)C3CCCCC3)cc2C(=O)N([C@@H](C)CO)C[C@H]1C | 1.8
O=C(C1CC1)N1C[C@H]2[C@@H](c3ccccc31)[C@@H](CO)N2C(=O)c1ccccc1F | -0.3
CC(=O)O[C@H]1C=C[C@@H](NC(=O)OC(C)(C)C)C1 | -8.4
C/C=C/c1ccc2c(c1)O[C@H](CN(C)C(=O)c1cccc(F)c1)[C@@H](C)CN([C@@H](C)CO)S2(=O)=O | 3.4
O=C(C[C@H]1C=C[C@@H](NC(=O)c2cnccn2)[C@@H](CO)O1)NCc1ccccc1F | -0.5
CO[C@H]1CN(C)C(=O)c2ccc(NC(=O)C3CC3)cc2OC[C@@H](C)N(C(=O)C2CCCCC2)C[C@@H]1C | -0.8
C=CCOC(=O)[C@H]1[C@@H]2C(=O)O[C@@H](c3ccccc3)[C@@H](c3ccccc3)N2[C@@H](c2ccc(OCCOC(=O)[C@H]3C[C@H]4C(=O)N[C@@H](CC(C)C)C(=O)N4[C@H]3c3ccc(O)cc3)cc2)[C@]12C(=O)Nc1ccccc12 | -3.9
COc1ccc(S(=O)(=O)Nc2ccc3c(c2)C(=O)N([C@@H](C)CO)C[C@@H](C)[C@H](CN(C)C(=O)NC2CCCCC2)OCCCC[C@H](C)O3)cc1 | 1.2
C[C@@H]1CN([C@@H](C)CO)C(=O)Cc2cc(NC(=O)Cc3cn(C)c4ccccc34)ccc2O[C@@H]1CN(C)S(=O)(=O)c1ccc(F)cc1 | -0.3
C[C@@H]1CN([C@H](C)CO)S(=O)(=O)c2ccc(-c3cccc(C(=O)N(C)C)c3)cc2O[C@H]1CN(C)C(=O)Cc1ccccn1 | 1.4
CCC(=O)N1CC2(C1)[C@H](c1ccccc1)[C@@H](CO)N2CC1CCOCC1 | -1.0
C[C@H](CO)N1C[C@H](C)[C@@H](CN(C)C(=O)Nc2ccc3c(c2)OCO3)Oc2ccc(NS(=O)(=O)c3cn(C)cn3)cc2CC1=O | -6.8
O=C(N[C@@H]1CC[C@H](CCNS(=O)(=O)c2ccc(Cl)cc2)O[C@@H]1CO)c1cccc(F)c1 | -0.4
CC(C)NC(=O)N(C)C[C@H]1OCCCC[C@@H](C)Oc2ccc(NC(=O)Nc3ccc4c(c3)OCO4)cc2C(=O)N([C@H](C)CO)C[C@@H]1C | 0.5
Cc1cn(C2CC(O)C(O)C(CO)O2)c(=O)[nH]c1=O (stereo not given) | -6.7
C[C@@H]1CN([C@@H](C)CO)C(=O)c2cccc(NC(=O)Nc3ccccc3)c2O[C@@H]1CN(C)Cc1ccc(C(F)(F)F)cc1 | 0.6
COCC(=O)N(C)C[C@@H]1Oc2ncc(C#CCC3CCCC3)cc2C(=O)N([C@H](C)CO)C[C@H]1C | 0.2
C[C@@H]1CN([C@H](C)CO)C(=O)Cc2cc(NC(=O)C3CC3)ccc2O[C@H]1CN(C)S(=O)(=O)c1ccc(F)cc1 | -2.0
Cc1cccc(S(=O)(=O)NC(=O)C2(C)CCN2C(=O)c2cccc(F)c2)c1 (stereo not given) | -11
Cc1cc(C(=O)Nc2cccc3c2O[C@@H](CN(C)CC2CC2)[C@@H](C)CN([C@@H](C)CO)C3=O)n(C)n1 | -4.4
CC(C)NC(=O)N(C)C[C@H]1Oc2cc(C#C[C@H](C)O)ccc2S(=O)(=O)N([C@H](C)CO)C[C@@H]1C | -3.3
COC(=O)C[C@@H]1CC[C@@H]2[C@H](COc3ccc(NC(=O)Nc4c(C)noc4C)cc3C(=O)N2C)O1 | -0.8
O=C(c1ccc(C(F)(F)F)cc1)N1CCC(=O)N([C@H](COCc2ccc(Cl)cc2)Cc2ccccc2)CC1 | 0.5
CN1C(=O)c2cc(NS(=O)(=O)c3ccc(Cl)cc3)ccc2OC[C@@H]2O[C@@H](CC(=O)N3CCc4ccccc4C3)CC[C@H]21 | -1.3
C[C@H](CO)N1C[C@H](C)[C@H](CN(C)CC2CC2)Oc2ccc(NC(=O)C3CCCCC3)cc2C1=O | 1.4
C[C@@H]1CCCCO[C@H](CN(C)C(=O)c2ccccc2)[C@@H](C)CN([C@@H](C)CO)C(=O)c2cc(NC(=O)Nc3ccc(C(F)(F)F)cc3)ccc2O1 | 3.1
COC(=O)[C@]12C[C@H](CC(=O)N3CCC(c4ccccc4)CC3)C(=O)N(Cc3ccccc3)C1=C[C@H](C1CCCC1)O[C@@H]2C | 0.3
COCCNC(=O)C1CCCN(C(=O)Cc2ccc(F)cc2)CC1 (stereo not given) | -1.4
COc1ccc(Cn2cc(CN3CCS(=O)(=O)N(Cc4ccc(-c5cccc(Cl)c5)cc4)C(C)C3=O)nn2)cc1 (stereo not given) | 1.5
C[C@H](CO)N1C[C@H](C)[C@H](CN(C)CC2CCCCC2)Oc2c(NC(=O)NC3CCCCC3)cccc2C1=O | -0.3
O=C(NC1CCCCC1)N1CC(=O)N2[C@H](CO)[C@@H](c3ccc(-c4cccc(F)c4)cc3)[C@@H]2C1 | 0.2
Cc1ccc(S(=O)(=O)Nc2ccc3c(c2)C(=O)N([C@H](C)CO)C[C@H](C)[C@@H](CN(C)C(=O)Nc2c(C)noc2C)OCCCC[C@H](C)O3)cc1 | -2.8
C[C@@H]1CN([C@@H](C)CO)C(=O)c2cccc(NC(=O)C3CCCCC3)c2O[C@@H]1CN(C)Cc1ccc(Oc2ccccc2)cc1 | 5.4

Reprinted from the part before: 7 compounds, followed by the next part.
SMILES | MLL AF4-AF9 inh
COC(=O)[C@]12C[C@H](CC(=O)N3CCC(c4ccccc4)CC3)C(=O)N(Cc3ccccc3)C1=C[C@H](C1CCCC1)O[C@@H]2C | 0.3
COCCNC(=O)C1CCCN(C(=O)Cc2ccc(F)cc2)CC1 (stereo not given) | -1.4
COc1ccc(Cn2cc(CN3CCS(=O)(=O)N(Cc4ccc(-c5cccc(Cl)c5)cc4)C(C)C3=O)nn2)cc1 (stereo not given) | 1.5
C[C@H](CO)N1C[C@H](C)[C@H](CN(C)CC2CCCCC2)Oc2c(NC(=O)NC3CCCCC3)cccc2C1=O | -0.3
O=C(NC1CCCCC1)N1CC(=O)N2[C@H](CO)[C@@H](c3ccc(-c4cccc(F)c4)cc3)[C@@H]2C1 | 0.2
Cc1ccc(S(=O)(=O)Nc2ccc3c(c2)C(=O)N([C@H](C)CO)C[C@H](C)[C@@H](CN(C)C(=O)Nc2c(C)noc2C)OCCCC[C@H](C)O3)cc1 | -2.8
C[C@@H]1CN([C@@H](C)CO)C(=O)c2cccc(NC(=O)C3CCCCC3)c2O[C@@H]1CN(C)Cc1ccc(Oc2ccccc2)cc1 | 5.4
C[C@@H]1CN([C@H](C)CO)C(=O)c2cccc(NC(=O)C3CC3)c2O[C@@H]1CN(C)C(=O)Nc1ccc2c(c1)OCO2 | -10
CCCNC(=O)N(C)C[C@@H]1Oc2cc(C#CCN(C)C)ccc2S(=O)(=O)N([C@H](C)CO)C[C@@H]1C | -0.1
C[C@H]1CN([C@@H](C)CO)C(=O)c2c(c3ccccc3n2C)-c2ccccc2CO[C@H]1CN(C)S(=O)(=O)c1ccc(Cl)cc1 | 7.5
C[C@@H](NC(=O)C[C@H]1C[C@@H]2c3cc(NC(=O)c4cccnc4)ccc3O[C@@H]2[C@H](CO)O1)c1ccccc1 | 0.5
COc1ccc(CNC(=O)c2sc(=O)n(Cc3cc(Cl)ccc3OC)c2C)cc1 | -0.6
COCC(=O)Nc1ccc2c(c1)OC[C@@H](C)N(C(=O)c1cccnc1)C[C@H](C)[C@H](OC)CN(C)C2=O | -0.1
O=C(C[C@@H]1CC[C@H](NC(=O)CCN2CCCCC2)[C@@H](CO)O1)Nc1ccccc1 | -4.9
O=C(Cc1ccc(NC(=O)C2CCCN(C(=O)C3CCCCC3)C2)cc1)Nc1cccc(C(=O)N2CCCCC2)c1 (stereo not given) | 3.0
CCS(=O)(=O)Nc1ccc2c(c1)C(=O)N(C)[C@H]1CC[C@@H](CC(=O)NC)O[C@@H]1CO2 | -1.4
CC(C)n1c(=O)c2ccccc2n1Cc1cn(C2CCCC2)nn1 | 0.6
Nc1sc(-c2ccccc2)cc1C(=O)N1CCNCC1 | 5.1
C[C@H]1CN([C@@H](C)CO)C(=O)c2cc(NC(=O)Cn3cnnn3)ccc2O[C@@H]1CN(C)S(=O)(=O)c1ccccc1 | 2.0
Cc1cc(C)cc([C@H]2C[C@]34CN(C(=O)OC(C)(C)C)S(=O)(=O)[C@H]3C[C@H]2O4)c1 | -0.8
CN1C(=O)c2cc(NC(=O)Nc3ccccc3F)ccc2OC[C@@H]2O[C@@H](CC(=O)NCCc3ccncc3)CC[C@H]21 | -2.4
Cc1ccc(S(=O)(=O)N2[C@@H]3CNC[C@H]2C3c2ccc(-c3ccc(C(=O)N(C)C)cc3)cc2)cc1 (stereo not given in full) | 8.5
C[C@@H]1CN([C@H](C)CO)C(=O)c2cc(NC(=O)Nc3cccc4ccccc34)ccc2O[C@H]1CN(C)Cc1ccc2c(c1)OCO2 | 3.1
C/C=C/c1cnc2c(c1)C(=O)N([C@H](C)CO)C[C@@H](C)[C@H](CN(C)C(=O)c1cccc(F)c1)O2 | -0.7
O=C1CN(Cc2ccc(F)cc2)C[C@@H]2[C@@H](c3ccc(-c4ccccc4F)cc3)[C@@H](CO)N12 | 4.1
CO[C@H]1CN(C)C(=O)c2cc(NC(=O)Cc3ccccc3)ccc2OC[C@@H](C)N(C)C[C@H]1C | -0.1
O=C(C[C@H]1C[C@@H]2c3cc(NC(=O)C4CCC4)ccc3O[C@@H]2[C@@H](CO)O1)NCc1ccc2c(c1)OCO2 | 0.1
COCC#Cc1ccc2c(c1)O[C@@H](CN(C)C(=O)C1CC1)[C@@H](C)CN([C@@H](C)CO)S2(=O)=O | -2.1
C[C@H](CO)N1C[C@H](C)[C@H](CN(C)C(=O)CN(C)C)Oc2ncc(-c3ccc(F)cc3)cc2C1=O | 0.0
COc1ccc(CN(C)C[C@@H]2Oc3c(NC(=O)c4ccc(-c5nccs5)cc4)cccc3C(=O)N([C@@H](C)CO)C[C@H]2C)cc1 | 6.5
Cc1noc(C)c1NC(=O)Nc1ccc2c(c1)C(=O)N([C@@H](C)CO)C[C@@H](C)[C@H](CN(C)C(=O)Nc1ccc(F)cc1)OCCCC[C@@H](C)O2 | -0.3
O=C(Nc1cc(F)ccc1F)N[C@H]1CC[C@@H](CCn2cc(C3CCCC3)nn2)O[C@H]1CO | 0.4
C[C@H](NC(=O)C[C@@H]1CC[C@H]2[C@@H](COc3ccc(NC(=O)C4CCOCC4)cc3C(=O)N2C)O1)c1ccccc1 | 0.0
C[C@@H]1CN([C@@H](C)CO)C(=O)c2cccc(NC(=O)Nc3ccc(F)cc3)c2O[C@@H]1CN(C)C(=O)Nc1ccc(F)cc1 | 2.1
Cc1cccc(C)c1NC(=O)C(c1ccccc1)n1c(=O)c(-c2cc3ccccc3[nH]2)nc2ccccc21 (stereo not given) | -14
CC(C)C#Cc1cnc2c(c1)C(=O)N([C@@H](C)CO)C[C@H](C)[C@H](CN(C)C(=O)Nc1cccc(F)c1)O2 | 1.1
COc1ccc(CN(C)C[C@H]2Oc3c(NC(=O)NC(C)C)cccc3C(=O)N([C@H](C)CO)C[C@H]2C)cc1 | -4.8
C[C@@H]1CN([C@H](C)CO)S(=O)(=O)c2ccc(C3=CCCC3)cc2O[C@@H]1CN(C)C(=O)C1CCC1 | -3.8
CN1C(=O)c2cc(NC(=O)c3cccc(F)c3)ccc2OC[C@@H]2O[C@H](CC(=O)NCC3CC3)CC[C@@H]21 | -6.2
COc1ccc(-c2ccc(C3[C@@H]4CN(S(=O)(=O)c5cccc(C)c5)C[C@H]3N4)cc2)cc1 (stereo not given in full) | -4.0&1.2
Cc1noc(C)c1S(=O)(=O)Nc1ccc2c(c1)CC(=O)N([C@@H](C)CO)C[C@@H](C)[C@H](CN(C)Cc1ccccc1)O2 | 5.5
COCC#Cc1ccc2c(c1)O[C@@H](CN(C)S(=O)(=O)c1ccc(OC)cc1)[C@@H](C)CN([C@H](C)CO)S2(=O)=O | -0.4

Quoted at random: 4 entries already listed, in no set order.
SMILES | MLL AF4-AF9 inh
Cc1cccc(C)c1NC(=O)C(c1ccccc1)n1c(=O)c(-c2cc3ccccc3[nH]2)nc2ccccc21 (stereo not given) | -14
C[C@@H]1CN([C@H](C)CO)S(=O)(=O)c2ccc(C3=CCCC3)cc2O[C@@H]1CN(C)C(=O)C1CCC1 | -3.8
O=C1CN(Cc2ccc(F)cc2)C[C@@H]2[C@@H](c3ccc(-c4ccccc4F)cc3)[C@@H](CO)N12 | 4.1
C[C@@H]1CN([C@@H](C)CO)C(=O)c2cccc(NC(=O)C3CCCCC3)c2O[C@@H]1CN(C)Cc1ccc(Oc2ccccc2)cc1 | 5.4
